Bioassay records from PubChem BioAssay.
KCNQ2 block – KCNQ2 potassium channel inhibitors, primary screen, cell-based, CHO-K1, FluxOR thallium flux, B-score (AID 2156); Potassium voltage-gated channel subfamily KQT member 2 (Rattus norvegicus), O88943; 20 min; active compounds read low; only compounds with negative scores are shown here; some inactives read as strong as hits; B-score at 10 µM; 310,000 compounds, 1.1% hits;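 active = fluorescence ratio B-score at most minus 3 library SDs, with starting brightness B-score within 2 library SDs, cut at about -5.5 in these data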
Target sequence (O88943 whole entry, looked up): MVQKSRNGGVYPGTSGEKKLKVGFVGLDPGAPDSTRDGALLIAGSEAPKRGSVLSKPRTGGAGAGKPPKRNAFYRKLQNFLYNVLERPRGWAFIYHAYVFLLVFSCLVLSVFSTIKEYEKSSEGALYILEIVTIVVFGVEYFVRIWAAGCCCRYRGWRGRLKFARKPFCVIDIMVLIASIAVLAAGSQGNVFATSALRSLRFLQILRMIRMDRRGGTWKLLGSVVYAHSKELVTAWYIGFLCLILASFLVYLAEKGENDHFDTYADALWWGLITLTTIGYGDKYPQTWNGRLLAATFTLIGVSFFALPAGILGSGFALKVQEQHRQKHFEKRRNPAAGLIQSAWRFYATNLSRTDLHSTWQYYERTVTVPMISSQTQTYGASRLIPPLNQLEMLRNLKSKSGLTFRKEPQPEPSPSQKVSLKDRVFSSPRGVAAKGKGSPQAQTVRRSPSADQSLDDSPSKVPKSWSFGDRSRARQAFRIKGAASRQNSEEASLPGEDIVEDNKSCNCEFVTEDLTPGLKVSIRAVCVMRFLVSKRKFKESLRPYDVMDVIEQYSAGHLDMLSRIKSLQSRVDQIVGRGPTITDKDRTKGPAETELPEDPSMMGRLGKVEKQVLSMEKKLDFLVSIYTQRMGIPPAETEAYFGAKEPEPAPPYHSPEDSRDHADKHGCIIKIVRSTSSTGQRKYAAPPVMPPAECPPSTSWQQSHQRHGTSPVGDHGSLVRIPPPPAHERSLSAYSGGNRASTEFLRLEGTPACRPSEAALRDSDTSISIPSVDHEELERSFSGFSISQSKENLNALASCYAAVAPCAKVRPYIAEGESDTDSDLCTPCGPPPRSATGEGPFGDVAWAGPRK
KCNQ2 block baseline – also measured in KCNQ2 block; calls as there; B-score; measured here: initial fluorescence intensity artifact check;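 brightness before thallium and not channel activity; 0 = typical well and far values either way flag optical interference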
Numbers without * were called inactive; i = inactive. Some of the compounds tested. The share of hits here may be higher or lower than overall.

SMILES	KCNQ2 block	KCNQ2 block baseline
Cc1cccc(N(C(=O)Cn2nnc3ccccc32)C(C(=O)NCc2ccco2)c2ccncc2)c1 (stereo not given)	i	1.35
CC(=O)c1cc(NC(=O)c2ccc(Cl)cc2)c(=O)oc1/C=C/N(C)C	i	2.66
N#Cc1ccccc1Sc1ccccc1C(=O)NCC(c1ccco1)N1CCCC1 (stereo not given)	i	-0.49
O=C(CCN1C(=O)/C(=C\c2ccccc2F)SC1=S)N1CCCCC1	i	0.41
CC1=CC2=NC(=O)CC(C)(C(=O)N(CC(=O)NC3CCCC3)c3ccccc3C)N2C=C1 (stereo not given)	i	1.78
CC(=O)N(Cc1ccco1)c1nc(C(=O)Nc2ccc(Cl)cc2)c(C)s1	i	1.29
O=S(=O)(Nc1nccs1)c1ccc(F)cc1	i	1.65
O=C(O)CSc1nnc(-c2ccco2)o1	i	0.57
C[C@@H](NC(=O)[C@@H]1Cc2ccccc2CN1)C(=O)Nc1ccc2c(c1)OCCO2	i	-0.77
Cc1ccccc1NS(=O)(=O)c1ccc(OCC(=O)NCc2ccco2)cc1	i	0.34
COc1cccc(CNC(=O)CCC(=O)N2CCSc3ccccc32)c1OC	i	-1.78
Cc1cccc(N2C(=O)N3[C@@H]4c5ccccc5OC[C@@H]4[C@@H](c4ccccc4)[C@@]3(C)C2=O)c1	i	-0.97
O=C(Nc1cccnc1)OCc1ccccc1	i	0.53
O=C(COc1ccccc1N1C(=O)C2C3C=CC(C3)C2C1=O)c1ccccc1 (stereo not given)	i	-1.38
COP(=O)(/C=C/c1ccccc1)C(O)c1ccc(F)cc1 (stereo not given)	i	0.93
COc1ccc(N2C(=O)C(CN3CCN(C)CC3)C2c2ccccc2)cc1 (stereo not given)	i	-3.61
Cc1ccc(CN(C(=O)c2csnn2)C(C(=O)NC2CCCC2)c2ccco2)cc1 (stereo not given)	i	0.37
COc1ccc(OC)c(N(CC(=O)NCc2ccccc2)S(=O)(=O)c2ccc(OC)c(OC)c2)c1	i	3.06
Cc1occc1C(=O)NCc1nc(-c2ccccc2)no1	i	-1.09
O=C(Nc1ccc(F)cc1)c1ccccc1Oc1ccc(C(F)(F)F)cc1[N+](=O)[O-]	i	-0.78
COCCn1c(-c2ccc(OC)cc2)nc2ccccc21	i	0.21
CNC(=O)CSCc1c(Cl)cccc1Cl	i	1.15
COc1ccc(C(=O)N2CCN(c3ncnc4c(-c5ccccc5)nsc34)CC2)cc1	i	1.06
COc1cccc(/C=N/NC(=O)CCn2cnc3ccccc32)c1	i	-0.24
CCOc1cc(C2C(C#N)=C(N)OC(C)=C2C(C)=O)cc(Br)c1O (stereo not given)	i	3.21
SMILES	KCNQ2 block	KCNQ2 block baseline
CCC(=O)N(CCC(Cc1ccccc1)c1ccc2c(c1)OCO2)Cc1ccccc1F (stereo not given)	i	0.27
COc1ccc(NS(=O)(=O)c2cccc(C(=O)NNC(=O)CNC(=O)c3ccccc3)c2)cc1	i	0.56
CCCOc1ccc(CSCCNC(=S)Nc2ccccc2)cc1	i	-2.65
O=C(c1ccc2c(c1)OCO2)N1CCC2(CC1)Oc1ccc(F)cc1C(=O)C21CC(c2ccccc2)=NO1 (stereo not given)	i	0.19
CCOC(=O)C(/C(N)=N/C(=O)Nc1ccccc1)=C(\C)O	i	-0.5
COc1ccc(CCNC(=O)C2CC(c3ccccc3C(F)(F)F)=NO2)cc1 (stereo not given)	i	-1.43
C/C=C\C=C\C(=O)N1CC2(CC(c3cccc(NC(=O)CC(c4ccccc4)c4ccccc4)c3)=NO2)C[C@H]1C(N)=O (stereo not given in full)	i	0.49
Cc1ccc(S(=O)(=O)NCC(=O)NCC(=O)OCc2c(F)cccc2Cl)cc1	i	1.98
O=C(Nc1ccc2c(c1)OCCO2)c1cc(-c2ccccn2)nc2ccc(Br)cc12	i	0.76
COc1cccc(C2=NN(C(C)=O)C(c3cccs3)C2)c1 (stereo not given)	i	0.58
CNc1oc(Cc2ccccc2)nc1S(=O)(=O)c1ccc(Cl)cc1	i	-0.2
Cc1ccc2c(c1)c(-c1csc(N)n1)c(C)n2C	i	-1.42
CCC(=O)c1ccc(OCC(O)CN2CCN(c3ccc(F)cc3)CC2)cc1 (stereo not given)	i	-1.13
O=C(O)CCCC(=O)Nc1nncs1	i	-0.87
CS(=O)(=O)N(CC(=O)N1CCc2ccccc2C1)c1ccccc1Br	i	-1.12
O=S(=O)(c1ccc(Cl)s1)N1CCC(Cc2ccccc2)CC1	-7.43*	2.66*
Cn1c(SCCOc2ccccc2F)nc2ccccc2c1=O	i	1.76
COc1ccc(NC(=O)CCC(=O)N2CCOCC2)c([N+](=O)[O-])c1	i	0.02
COc1cccc(NC(=O)Cc2ccc3ccccc3c2)c1	i	0.5
Cc1nnc(SCC(=O)Nc2ccc(N3CCOCC3)cc2)o1	i	0.74
COCCN(Cc1nc(C2(c3ccc(C)cc3)CCCC2)no1)C(C)C	i	-0.86
O=C1CC(c2cccc([N+](=O)[O-])c2)c2cc3c(cc2N1)CCC3 (stereo not given)	i	-0.55
COCC(=O)N/N=C\c1cccc(OC)c1OC/C=C/c1ccccc1	i	0.13
COc1cc(/C=C(\C#N)C(=O)Nc2ccccc2F)ccc1OCCN1CCOCC1	i	0.33
COC(=O)CNC(=O)CN1c2cccc3cccc(c23)S1(=O)=O	i	2.87

Part of the list above, with two lines to a compound.
The line under a structure holds: KCNQ2 block, KCNQ2 block baseline
- COc1ccc(CCNC(=O)C2CC(c3ccccc3C(F)(F)F)=NO2)cc1 (stereo not given)
  i, -1.43
- C/C=C\C=C\C(=O)N1CC2(CC(c3cccc(NC(=O)CC(c4ccccc4)c4ccccc4)c3)=NO2)C[C@H]1C(N)=O (stereo not given in full)
  i, 0.49
- Cc1ccc(S(=O)(=O)NCC(=O)NCC(=O)OCc2c(F)cccc2Cl)cc1
  i, 1.98
- O=C(Nc1ccc2c(c1)OCCO2)c1cc(-c2ccccn2)nc2ccc(Br)cc12
  i, 0.76
- COc1cccc(C2=NN(C(C)=O)C(c3cccs3)C2)c1 (stereo not given)
  i, 0.58
- CNc1oc(Cc2ccccc2)nc1S(=O)(=O)c1ccc(Cl)cc1
  i, -0.2
- Cc1ccc2c(c1)c(-c1csc(N)n1)c(C)n2C
  i, -1.42
- CCC(=O)c1ccc(OCC(O)CN2CCN(c3ccc(F)cc3)CC2)cc1 (stereo not given)
  i, -1.13
- O=C(O)CCCC(=O)Nc1nncs1
  i, -0.87
- CS(=O)(=O)N(CC(=O)N1CCc2ccccc2C1)c1ccccc1Br
  i, -1.12
- O=S(=O)(c1ccc(Cl)s1)N1CCC(Cc2ccccc2)CC1
  -7.43*, 2.66*
- Cn1c(SCCOc2ccccc2F)nc2ccccc2c1=O
  i, 1.76
- COc1ccc(NC(=O)CCC(=O)N2CCOCC2)c([N+](=O)[O-])c1
  i, 0.02
- COc1cccc(NC(=O)Cc2ccc3ccccc3c2)c1
  i, 0.5
- Cc1nnc(SCC(=O)Nc2ccc(N3CCOCC3)cc2)o1
  i, 0.74
- COCCN(Cc1nc(C2(c3ccc(C)cc3)CCCC2)no1)C(C)C
  i, -0.86
- O=C1CC(c2cccc([N+](=O)[O-])c2)c2cc3c(cc2N1)CCC3 (stereo not given)
  i, -0.55
- COCC(=O)N/N=C\c1cccc(OC)c1OC/C=C/c1ccccc1
  i, 0.13
- COc1cc(/C=C(\C#N)C(=O)Nc2ccccc2F)ccc1OCCN1CCOCC1
  i, 0.33
- COC(=O)CNC(=O)CN1c2cccc3cccc(c23)S1(=O)=O
  i, 2.87

More entries.
SMILES	KCNQ2 block	KCNQ2 block baseline
Cc1cc(SCCC(=O)O)nc2ccccc12	i	-0.01
NC(=O)CC(NC(=O)Cc1ccc(Br)cc1)c1ccc(NCCOc2ccccc2)c([N+](=O)[O-])c1 (stereo not given)	i	-0.86
O=C(O)c1ccc(N2CCCCC2)cc1	i	0.52
Cc1c(C(=O)NCC2COc3ccccc3O2)oc2ccc(S(=O)(=O)N3CC(C)CC(C)C3)cc12 (stereo not given)	i	0.25
CN=C(c1ccccc1)c1c(C)cccc1C	i	1.57
CCOC(=O)N1CCN(C(=O)C2CCN(c3nnc(-n4cccc4)s3)CC2)CC1	i	0.64
CCn1c(Cc2ccc(OC)cc2)nnc1SCC(=O)N1CCN(c2ccccc2)CC1	i	-1.09
C#CCOCCOCCOCCNc1nc(N2CCOCC2)nc(N2CCN(C(=O)[C@H](Cc3cc4ccccc4[nH]3)n3cc([C@@H](N)CC(C)C)nn3)CC2)n1	i	1.04
CC(/C=C/c1ccc2c(c1)OCO2)=N/NC(=O)C1COc2ccccc2O1 (stereo not given)	i	1.03
Cc1ccsc1C(=O)C1CCCN(Cc2cc(F)ccc2-n2cccn2)C1 (stereo not given)	i	1.35
N/C(=N\OC(=O)c1ccc2ccccc2c1)c1cccc([N+](=O)[O-])c1	i	1.58
O=C(Nn1c(=O)[nH]c2ccccc2c1=O)c1ccco1	i	-0.67
O=C(NC1CCCCCC1)C1c2ccccc2C(=O)N1C1CC1 (stereo not given)	i	0.81
COc1ccc(-c2cc(C(F)(F)F)n3nc(C(=O)N(C)Cc4ccccc4)cc3n2)cc1OC	i	1.33
COc1cccc(C(=O)C2CCCN(Cc3cccc(-n4nc(C)cc4C)c3)C2)c1 (stereo not given)	i	-0.88
Cc1ccc(-c2noc(CSc3nnc(CCc4ccccc4)n3-c3ccccc3)n2)cc1	i	-1.36
O=S(=O)(CCOc1ccccc1)c1nc2ccccc2[nH]1	i	6.49
COc1cccc(NC(=O)CSc2nc3ccccc3c(=O)n2C)c1	i	-1.61
CCOC(=O)C1=C(C)N(C)C(=O)NC1c1c(C)nn(-c2ccc(C)cc2)c1Cl (stereo not given)	i	0.27
COc1ccc(-n2nc([N+](=O)[O-])c(=NCCC3=CCCCC3)n2O)cc1	i	-0.47
COc1ccc(CCNC(=S)NC(=O)c2c(-c3ccccc3Cl)noc2C)cc1OC	i	2.06
CSc1ccc(/C=N/n2c(Cc3ccc(Br)cc3)n[nH]c2=S)cc1	i	0.18
O=C(C[n+]1ccccc1)Nc1ccccc1[N+](=O)[O-]	i	0.06
O=C(c1ccccc1F)N1CCN=C1c1ccccc1	i	-2.23
CCOC(=O)c1ccc(NC(=O)c2ccc(CN3CCOCC3)cc2)cc1	i	0.75
SMILES	KCNQ2 block	KCNQ2 block baseline
O=C(CCC(=O)N1CCOc2ccccc21)NCCCc1ccccc1	i	0.39
COc1ccc(CN(C(=O)/C=C/c2ccco2)C2CCS(=O)(=O)C2)cc1OC (stereo not given)	i	-0.67
Cc1ccccc1C1C(C#N)=C(N)N(N(C)C)C2=C1C(=O)CC(C)(C)C2 (stereo not given)	i	-0.11
CNc1nc(Oc2ccccc2C(=O)OC)nc(SC)n1	i	1.16
CC(C)c1ccc(/C=C2\SC(=O)N(CC(=O)NC3C=CS(=O)(=O)C3)C2=O)cc1 (stereo not given)	i	0.19
O=S(Cc1ccc(Cl)cc1)CC(O)(c1ccccc1)c1ccccc1 (stereo not given)	i	-0.7
CCCOc1cccc(C(=O)Nc2cccc3ncccc23)c1	i	-0.46
Cn1c(=O)c(C(=O)NCCc2ccc(Cl)cc2)c(O)c2ccccc21	i	-0.42
O=C(CN1CCCCCCC1)N/N=C/c1ccc(F)c(F)c1	i	-0.27
Cc1ccc(NC(=S)N(C)C)cc1C	i	0.14
Cn1c(C(=O)N2CCN(Cc3ccc4c(c3)OCO4)CC2)cc2c(=O)n(C)c3ccccc3c21	i	0.03
CN(Cc1nc(Cc2cccc(F)c2)no1)CC1COCCO1 (stereo not given)	i	0.29
CC(NC(=O)NCCCn1ccnc1)(C(F)(F)F)C(F)(F)F	i	0.38
CC(C)(C)n1nnnc1CN1CCN(C2CCCC2)CC1	i	1.66
Cc1ccc(C(=O)Nc2cc(=O)n(C)c(=O)n2C)cc1C	i	-0.01
Cn1c(Cl)c(/C=N/OC(=O)C(C)(C)C)c2ccccc21	i	6.83
O=C(Nc1ccnn1C1CCN(Cc2ccccc2F)CC1)C1CCCC1	i	0.18
CSC1=N/C(=C\c2ccc(C)s2)C(=O)S1	i	0.48
S=C(Nc1ccccc1)NC1CCN(Cc2ccccc2)CC1	i	1
CC1CCCCC1NC(=O)CN(C)S(=O)(=O)c1ccc2c(c1)CCC(=O)N2 (stereo not given)	i	0.19
COC(=O)/C=C/c1ccc2c(c1)S(=O)(=O)N(c1cccc(OC)c1)[C@H]2CC(=O)OC	i	1.58
Cc1ccc2c(c1)/C(=N/OC(=O)c1ccc(F)cc1)CCS2	i	0.75
COc1ccc(C(=O)CSc2n[nH]c(-c3ccco3)n2)cc1	i	0.38
CCn1c(SCC(=O)NCc2ccco2)nnc1-c1c[nH]c2ccccc12	i	1.2
CCOC(=O)N1C(=O)C2(CCCCC2)N(c2ccccc2Cl)C1=S	i	-0.67
SMILES	KCNQ2 block	KCNQ2 block baseline
Cc1ccc(CNC(=O)C2CCN(S(=O)(=O)c3ccc(Br)s3)CC2)cc1	i	0.83
CC(=O)c1cccc(NC(=O)NNC(=O)c2ccc(-c3ccccc3)cc2)c1	i	-0.12
O=C(c1ccccc1)N1N=C(c2ccccc2O)CC1c1ccccc1 (stereo not given)	i	0.49
Cc1oc(-c2ccc(Cl)cc2)nc1CN1CCCC(C(=O)NCCCN2CCOCC2)C1 (stereo not given)	i	-0.01
Cc1ccc2nsnc2c1S(=O)(=O)NCCc1c(C)[nH]c2ccc(F)cc12	i	0.01
CCOP(=O)(OCC)C(NC(=O)NS(=O)(=O)c1ccc(C)cc1)c1ccccc1 (stereo not given)	i	-2.42
COc1ccc(CCNc2nc3ccc(C)cc3n3cnnc23)cc1OC	i	-0.14
O=C(Oc1ccc(-c2nnco2)cc1)c1ccco1	i	-0.09
COC(=O)c1ccc(C23CC4(C2)[C@H](CN(C)[C@@H]4c2ccccc2)C3c2ccc(C(F)(F)F)cc2)cc1 (stereo not given in full)	i	0.02
CCOC(=O)N1CCN(C(=O)CC(C)S(=O)(=O)c2cc3c(cc2C)NC(=O)CO3)CC1 (stereo not given)	i	-2.12
COc1cc(OC)cc(-c2nnc(NC(=O)CCS(=O)(=O)c3ccc(C)cc3)o2)c1	i	1.07
O=C(C1CC(=O)N(c2ccc(Cl)cc2)C1)N1CCCCCC1 (stereo not given)	i	0.41
